Assay outcomes (PubChem)
MT1-MMP promoter: inhibitors of MT1-MMP promoter transcription, cell-based, luciferase reporter, luminescence (AID 618); calls from a first round at 10 µM; hits with a dose series show EC50 in µM; MT1-MMP promoter luciferase reporter cells, luminescence; hit rate 0.62% among 87,000;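 active means over half of the reporter light lost at 10 µM or EC50 under 50 µM; inactive means the rest and hits that failed the dose series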;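 further: actives suppress MT1-MMP promoter-driven transcription so potencies describe inhibitors; HT1080 fibrosarcoma cells; overnight exposure; toxic or luciferase-blocking compounds were not removed from the actives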
Hsc70: Hsc70 inhibitors, probe displacement, primary screen, biochemical, fluorescence polarization (AID 568); Heat shock cognate 71 kDa protein (Homo sapiens); Hsc70 fluorescence polarization, probe displacement; higher % means a stronger effect; strong numbers were not always called active; displacement, % at 20 µM, or IC50 in µM where a hit was titrated; 83,000 tested, under 10 active;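 active means displacement above 50% without optical interference and an IC50 on retest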;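 further: ATPase domain with a fluorescein-tagged ATP probe; 0% = vehicle and 100% = excess ADP; read after one hour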
WNV NS2B-NS3 inh: inhibitors of WNV NS2B-NS3 protease, primary screen, biochemical, fluorogenic substrate; fluorogenic substrate Ex360/Em465; stronger effect = lower value; Genome polyprotein (West Nile virus), P06935; hit rate 0.18% among 65,000; z-score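 (tested at a level between 10 and 100 µM)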;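 active means z-score at -3 or under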;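 further: score is relative to mean and spread of the compound wells of a plate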
Target sequence (P06935 1371-1501 limits assumed): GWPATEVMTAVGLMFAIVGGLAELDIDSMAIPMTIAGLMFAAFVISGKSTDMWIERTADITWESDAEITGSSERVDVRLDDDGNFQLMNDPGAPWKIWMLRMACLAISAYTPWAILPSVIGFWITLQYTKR
Target sequence (P06935 1502-1679 limits assumed): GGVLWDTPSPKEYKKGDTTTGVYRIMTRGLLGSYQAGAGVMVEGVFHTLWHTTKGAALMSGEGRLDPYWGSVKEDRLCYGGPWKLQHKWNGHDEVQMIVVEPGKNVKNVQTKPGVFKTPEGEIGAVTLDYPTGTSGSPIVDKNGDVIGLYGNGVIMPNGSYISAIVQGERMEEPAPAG
* = called active by the depositor; i = inactive; · = no result given.

Structure,MT1-MMP promoter,Hsc70,WNV NS2B-NS3 inh
CCN(CC)S(=O)(=O)c1cccc(-c2nnc(SCC(=O)c3ccc(Cl)s3)n2C)c1,i,-5.6%,0.09
COc1ccc(OC)c(S(=O)(=O)NCC2CCCO2)c1 (stereo not given),i,-5.5%,0.26
CCOC(=O)c1ccc(NC(=O)CSCc2ccco2)cc1,i,-9.7%,-1.2
O=C(O)CCC(=O)N1CCN(c2ccc(C(=O)c3ccc(F)cc3)cc2)CC1,i,-6.4%,-0.36
O=C(CSc1nnc(-c2ccccn2)n1Cc1ccco1)c1ccc(Cl)cc1,i,-1.7%,0.97
O=C(CSc1nnc(Cc2ccccc2)o1)N1CCc2ccccc21,i,4.3%,-0.85
CC1CCN(CCCNC(=O)c2cc3c(=O)n(C)c4ccccc4c3n2C)CC1,i,6.8%,0.11
CC(C)(C)NCC(O)c1cc(O)cc(O)c1 (stereo not given),i,1.0%,0.56
CCN(CCCNC(=O)C1CCN(S(=O)(=O)CC)CC1)c1ccccc1,i,-0.4%,-1.1
Cc1n[nH]c(C)c1S(=O)(=O)N1CCCC(C(=O)NCc2cccs2)C1 (stereo not given),i,2.4%,-0.19
COc1cccc(C(=O)Nc2ccc(NC(=O)c3ccco3)nc2)c1,i,1.3%,-1.8
Cc1nn(Cc2ccc(Cl)cc2Cl)c(Cl)c1/C=C/C(=O)OCC(=O)NCC(F)(F)F,i,1.6%,·
Cc1noc(C)c1CSCC(=O)Nc1nc2ccc(Oc3ccccc3)cc2s1,i,2.7%,·
CCc1c(C)nc2ncnn2c1N1CCCC(C(=O)NCCc2ccc(OC)cc2)C1 (stereo not given),i,-1.1%,-0.07
CCOC(=O)c1[nH]c2c(c1C)C(=O)CC(c1ccc(N(C)C)cc1)C2 (stereo not given),i,-1.0%,-0.49
Cn1cc(C(=O)NCCN2CCN(c3ccccc3F)CC2)c2c3ccccc3n(C)c2c1=O,i,-7.4%,1.1
CC1CCCCN1C(=O)Cn1cc(/C=C2/C(=O)Nc3ccccc32)c2ccccc21 (stereo not given),i,-2.1%,·
O=C(CC1Oc2ccccc2NC1=O)NC1CCCC1 (stereo not given),i,3.2%,0.13
O=C(CSc1ccccn1)N1CCN(c2ccc(Cl)cc2)CC1,i,3.5%,·
CN(C)c1ccc(-c2nc3n(n2)C(c2cccnc2)C2=C(CC(C)(C)CC2=O)N3)cc1 (stereo not given),i,2.8%,0.19
Cc1c(C)c2c(C)[nH]nc2oc1=O,i,-1.4%,-0.0091
O=C(NC(=O)N1CCN(c2ccccc2)CC1)c1ccc(Cl)cc1,i,-0.8%,·
COC(=O)c1c(NC(=O)CC2NCCNC2=O)sc2c1CCCC2 (stereo not given),i,9.4%,-1.5
Cc1onc(-c2c(F)cccc2Cl)c1C(=O)OCC(=O)NCc1ccco1,i,-0.7%,-0.04
Nc1nnc(SCC(=O)c2ccco2)s1,i,-2.1%,·
CCc1noc(C)c1C(=O)Nc1ncc(C)s1,i,-1.1%,-0.49
COc1ccc(CNC(=O)CCc2c(C)nc3ncnn3c2C)cc1,i,-4.4%,1.1
CN1CCN(C(=O)c2cnn(-c3ccccc3)c2NC(=O)c2ccccc2F)CC1,i,2.9%,0.96
COc1ccccc1N1CCN(S(=O)(=O)c2cnc[nH]2)CC1,i,-0.1%,-1.1
O=C(Nc1nnc(-c2ccc(Cl)s2)o1)C1CCCCC1,i,-0.5%,0.25
CCCc1cc(=O)[nH]c(/N=C(\N)Nc2ccccc2)n1,i,-6.1%,-0.87
CCOC(=O)c1[nH]c2ccc(OCC)cc2c1NC(=O)CN1CCN(c2ccccn2)CC1,i,-2.6%,0.31
O=C(c1cc2cc([N+](=O)[O-])ccc2oc1=O)N1CCN(c2ncccn2)CC1,i,-2.3%,·
CCOc1ccc2nc(NCCNC(=O)C(C)C)c(C)cc2c1,i,3.7%,-0.95
CCCCN(CCCC)S(=O)(=O)c1ccc(NC(=O)c2cccs2)cc1,i,-0.9%,·
CC(=O)N1N=C(c2ccncc2)OC12CCCCCC2,i,3.6%,·
Cn1nccc1C(=O)Nc1ccc(Cl)cc1,i,0.8%,·
Cc1ccc2c(c1)CN1CN2Cc2cc(C)ccc21,i,3.1%,0.36
Cc1ccc(-c2nn3c(-c4cccc(Cl)c4)nnc3s2)cc1,i,3.1%,1.2
COc1ccc(OCCC(=O)N2CCCCC2)cc1,i,4.9%,0.97
Cc1cc(-n2nc(C)cc2C)n2nc(C)c(-c3ccc(Cl)cc3)c2n1,i,-2.7%,·
COc1ccc(-c2cc(C(F)(F)F)n3ncc(C(=O)O)c3n2)cc1OC,i,-3.7%,-0.92
COc1ccc(C(=O)Nn2c(SCC(=O)c3ccc(Cl)cc3)nc3ccccc3c2=O)cc1,i,3.7%,·
CCN(CC)c1ccc(NC(=O)c2c(OC)cccc2OC)c(C)c1,i,-3.1%,0.3
COc1cccc(C2CC(c3c(F)cccc3Cl)n3nc(N)nc3N2)c1 (stereo not given),i,-5.7%,0.97
O=C(CCCc1ccccc1)Nc1cccc2c1CCCC2,i,0.8%,·
COc1cccc(C(=O)CSc2nnc(CNc3nc(-c4ccccc4)cs3)n2C)c1,i,-4.7%,0.32
CCCCCCCCS(=O)c1sc2nc3c(cc2c1N)CCCC3 (stereo not given),i,0.7%,·
O=C(c1ccccc1NS(=O)(=O)c1ccc2c(c1)OCCO2)N1CCOCC1,i,2.3%,·
CC(=O)Nc1cnc(NC(=O)c2cccc(F)c2)cc1C,i,-2.1%,1.5

Next section:
Structure,MT1-MMP promoter,Hsc70,WNV NS2B-NS3 inh
Cc1ccc(-c2ccc(=O)n(CCC(=O)NCc3ccccn3)n2)cc1,i,2.9%,-0.31
COc1ccc(C2CC(=O)C3=C(C2)Nc2ncnn2C3c2ccccc2)cc1 (stereo not given),i,4.0%,-0.05
CCn1c(CNC(=O)c2ccc(OC)c(OC)c2)nnc1SCC(=O)Nc1ccccc1,i,3.3%,0.15
O=C1COc2ccc(-c3csc(=Nc4ccc(OC(F)F)cc4)n3CC3CCCO3)cc2N1 (stereo not given),i,1.7%,·
COC(=O)c1sc2ccc(C)cc2c1C(=O)OC,i,2.7%,·
Cc1cccc(N2CCN(C(=O)CSCc3c(C)noc3C)CC2)c1C,i,-2.5%,-0.38
Cn1c(=O)cc(OCC(=O)NCCCN2CCN(Cc3ccccc3)CC2)c2ccccc21,i,-1.3%,-0.76
COc1ccc(-c2nc(CS(=O)CC(=O)NCc3cccnc3)c(C)o2)cc1OC (stereo not given),i,2.0%,0.18
COc1ccc(C)c2sc(=NC(=O)C(C)C)n(C)c12,i,-4.7%,0.5
O=C(CCn1c(SCC(=O)c2ccccc2)nc2ccccc2c1=O)NCc1ccc(F)cc1,i,-4.2%,·
CCN(CC)S(=O)(=O)c1ccc2oc(C(=O)O)c(C)c2c1,i,-4.8%,-0.33
CCN(CC)CCNC(=O)c1sc2nc(-c3ccccc3)cn2c1C,i,4.5%,2
CCOC(=O)c1cc2occc2n1CC(=O)N1CCCc2ccccc21,i,-2.9%,-0.79
CCOC(=O)CCc1cccc2c1CCC2=O,i,2.5%,-0.63
CCC(C)Sc1nc2c(c(=O)[nH]c(=O)n2C)n1C (stereo not given),i,-6.0%,0.23
COC(=O)c1c(/N=C/NOCc2ccc(Cl)cc2)sc2c1CCN(c1ncc(C(F)(F)F)cc1Cl)C2,i,1.2%,·
COc1ccccc1NC(=O)C1=C(C)NC2=C(C(=O)CCC2)C1c1ccc2c(c1)OCO2 (stereo not given),i,0.0%,-0.37
O=C(O)CCC(=O)c1c[nH]c2ccccc12,i,3.0%,1.1
O=C(NCc1ccc2c(c1)OCO2)c1ccc(-n2cnnn2)cc1,i,2.6%,-0.7
CC(=O)c1ccc(NC(=O)Oc2ccccc2)cc1,i,-1.6%,·
CCOc1ccccc1NC(=O)N1CCC(C(=O)c2ccc(F)cc2)CC1,i,-2.1%,·
COc1ccc(C(CNC(=O)c2ccc(OCC3CCCO3)cc2)N2CCOCC2)cc1 (stereo not given),i,3.7%,-0.01
CCOc1ccc(C(=O)OCC(=O)Nc2nc(OC)cc(OC)n2)cc1OCC,i,-3.4%,-0.66
CCC1CCCCN1Cc1nc2c(c(=O)n(C)c(=O)n2C)n1CC(C)C (stereo not given),i,-4.3%,0.68
CCOC(=O)C1CCN(C(=O)CN(c2ccc3c(c2)OCO3)S(C)(=O)=O)CC1,i,0.4%,-0.13

No new results follow: 3 of the compounds above.
Structure,MT1-MMP promoter,Hsc70,WNV NS2B-NS3 inh
CCOc1ccccc1NC(=O)N1CCC(C(=O)c2ccc(F)cc2)CC1,i,-2.1%,·
COc1ccc(C(CNC(=O)c2ccc(OCC3CCCO3)cc2)N2CCOCC2)cc1 (stereo not given),i,3.7%,-0.01
CCOc1ccc(C(=O)OCC(=O)Nc2nc(OC)cc(OC)n2)cc1OCC,i,-3.4%,-0.66

(more compounds)
Structure,MT1-MMP promoter,Hsc70,WNV NS2B-NS3 inh
CC1(C)Cc2ccccc2-c2nc(NCCO)n(-c3ccccc3)c(=O)c21,i,4.9%,0.82
Cc1cc(C)cc(CC2CC(=O)N(c3cc(C)on3)C2=O)c1 (stereo not given),i,-1.1%,0.005
CCCCn1c(Cc2ccccc2)n[nH]c1=S,i,-6.8%,0.44
Cc1noc(C)c1COC(=O)c1cc2c(C)nn(-c3ccc(F)cc3)c2s1,i,5.7%,-0.76
O=c1c2ccccc2nc(-c2ccoc2)n1CCc1ccccc1,i,-9.7%,1.7
O=S1(=O)C=C(Oc2ccc(F)cc2)c2ccccc21,i,-1.1%,-1
COc1cc(C(=O)COC(=O)Cc2cnc3sccn23)cc(OC)c1OC,i,3.5%,-0.98
COCCn1c(SCC(=O)N2CCCc3ccccc32)nc2ccccc2c1=O,i,-0.2%,-0.02
CC1=C(C(=O)Nc2ccccn2)C(c2ccccc2)n2ncnc2N1 (stereo not given),i,-3.2%,-0.82
CC1(C)Cc2c(c(N3CCOCC3)nc3sc4c(NCc5ccccc5)nnnc4c23)CS1,i,-4.8%,·
CSc1nc2c(c(=O)[nH]c(=O)n2C)n1C/C=C(\C)Cl,i,-9.0%,0.69
Cc1cc(=O)oc(C)c1C(=O)NCCNC(=O)c1c(C)cc(=O)oc1C,i,2.2%,-0.1
CS(=O)(=O)N1CCc2cc(-c3csc(NC(=O)Cc4ccccc4)n3)ccc21,i,0.4%,·
CCSc1nnc(NC(=O)c2ccco2)s1,i,0.2%,1.3
C=CCN1CC2CC3(COc4cc(C)cc(C)c4)C=CC2(O3)C1=O (stereo not given),i,-7.2%,0.02
S=C(c1nc2ccccc2[nH]1)N1CCOCC1,i,-3.6%,·
CC(C)C(NS(=O)(=O)c1ccc2c(c1)OCCO2)C(=O)NCCc1ccccn1 (stereo not given),i,4.8%,0.34
CC1=CCC2C(=O)N(CCc3c[nH]c4ccccc34)C(=O)C2C1 (stereo not given),i,4.2%,·
O=C(CCN1C(=O)c2cccnc2C1=O)NC1CCCCCC1,i,-2.0%,-0.85
Cn1nnc2cc(NC(=O)NCc3ccc4c(c3)OCO4)ccc21,i,-0.8%,-0.91
O=C(NCCN1Cc2ccccc2C1=O)c1cccs1,i,0.2%,1.3
CCOC(=O)C1=C(Cc2ccc(Cl)cc2)C(=O)c2ccccc2C1=O,i,0.6%,·
O=C(c1ccco1)N1CCN(S(=O)(=O)c2ccc3c(c2)OCCO3)CC1,i,-2.2%,0.9
C=CCSC1=C(C#N)C(c2cc(Br)c(O)c(OC)c2)CC(=O)N1 (stereo not given),i,-0.2%,1.4
CCCC(=O)OCCn1c(Br)nc2c1c(=O)[nH]c(=O)n2C,i,-4.9%,-0.7

Pulled by compound from above (2):
Structure,MT1-MMP promoter,Hsc70,WNV NS2B-NS3 inh
CC1(C)Cc2c(c(N3CCOCC3)nc3sc4c(NCc5ccccc5)nnnc4c23)CS1,i,-4.8%,·
CCCC(=O)OCCn1c(Br)nc2c1c(=O)[nH]c(=O)n2C,i,-4.9%,-0.7

The listing continues.
Structure,MT1-MMP promoter,Hsc70,WNV NS2B-NS3 inh
O=C(NCc1cccnc1)Nc1ccccc1F,i,2.3%,·
O=C(CSc1nc2ccccc2[nH]1)Nc1ccccc1N1CCOCC1,i,-0.6%,0.07
CS(=O)(=O)N(Cc1nc2sc3c(c2c(=O)[nH]1)CCCC3)C1CCCCC1,i,-4.0%,-0.01
CCOCc1nnc(NC(=O)CSc2ccc(C)cc2)s1,i,-2.7%,·
CC(C)NC(=O)COC(=O)c1ccc(O)cc1,i,1.5%,-0.22
CCOCCCNC(=O)C(NC(=O)CNC(C)=O)c1ccc(Cl)cc1 (stereo not given),i,7.6%,0.08
CCOC(=O)c1cnc(-n2nc(C)cc2C)nc1NC,i,2.2%,-0.58
O=C(CSc1nc2cc(Cl)ccc2s1)c1ccco1,i,-6.7%,-0.55
COc1ccc2ccc(Oc3ncccn3)cc2c1,i,10%,0.57
CC1CCCCN1S(=O)(=O)c1cccc2cccnc12 (stereo not given),i,0.7%,1.5
O=C(NCc1ccc(F)cc1)c1c(O)c2cccc3c2n(c1=O)CCC3,i,1.7%,-1.5
